High-throughput results deposited in PubChem by Center for Chemical Genomics, University of Michigan.
CDC25B CDK2 inh: human CDC25B-CDK2/CyclinA binding inhibition; 0.72% of 94,000 active; HTRF CDC25B-CDK2/CyclinA binding, anti-His/anti-Flag; active compounds read high; z-score (no concentration beside the values); P30305+P24941;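 note: score is relative to mean and SD of negative controls; strong numbers were not always called active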
TAR Tat displ: HIV-1 TAR-Tat binding disruption; AID 1259389; HIV-1 TAR RNA, Tat peptide displacement FRET; active compounds read high; z-score (no concentration beside the values); 0.6% of 100,000 active;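 note: score is relative to mean and SD of negative controls; some compounds called inactive have numbers as strong as hits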
The depositor's hits bear a star; x = no result given.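 Rule for the calls: active = z-score from 3 up in half or more of its runs; inactive = the rest.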

Molecule | CDC25B CDK2 inh | TAR Tat displ
COc1ccc(C2CC(=O)C3=C(C2)Nc2ccccc2NC3c2ccc(F)c(F)c2)cc1OC (configuration not stated) | -0.63 | 1.6
Cn1c(=O)c2c(SCc3ccc(F)cc3)nc(-c3ccc(F)cc3)nc2n(C)c1=O | -1 | x
Cc1ccccc1-c1nnc(CN2CCc3ccccc3C2)o1 | -1.6 | 1.4
CC1(C)Cc2nc3oc4c(=O)n(Cc5ccc(F)cc5)cnc4c3cc2CO1 | x | 0.2
COc1ccc(OCC(O)CN2C(=O)c3ccccc3S2(=O)=O)cc1 (configuration not stated) | -1.5 | -0.23
CC1CCN(c2c(NCC3CCC(C(=O)NC4CCCC(C)C4C)CC3)c(=O)c2=O)CC1 (configuration not stated) | 0.23 | x
O=C(NCC(c1ccco1)S(=O)(=O)c1cccs1)c1cccs1 (configuration not stated) | x | 2.5
COc1ccc(Br)cc1C1C(C#N)=C(N)OC2=C1C(=O)CC(C)(C)C2 (configuration not stated) | 1 | x
CCc1nn(CC(=O)N2CCCCC2)c(=O)c2cc3sc(C)cc3n12 | -0.67 | -0.49
CC1CCCN(C(=O)Cn2c(=O)oc3cc(S(=O)(=O)N4CC(C)CC(C)C4)ccc32)C1 (configuration not stated) | -1.4 | -0.03
C#CCn1nc(-c2ccccc2)ccc1=O | -1.1 | 0.28
COc1ccc(C2Nc3ccccc3S(=O)(=O)N2Cc2ccccc2)cc1OC (configuration not stated) | -1.8 | x
Cc1ccc(NC(=O)N2CCn3cccc3C2C)c(C)c1 (configuration not stated) | x | 0.15
C=CCNC(=S)Nc1ccc2nc3c4ccccc4c4ccccc4c3nc2c1 | 4.7* | x
CCCOc1ccc(C2C(C(=O)OCC3CCCO3)=C(C)NC3=C2C(=O)CC(C)(C)C3)cc1OC (configuration not stated) | -1.8 | 0.21
Cc1ccc(-c2nonc2NC(=O)c2ccco2)cc1C | -0.13 | 1.4
Cc1ccc2nc(-c3cccnc3)oc2c1 | 0.64 | 0.96
CC(=O)N1c2ccccc2NC(=O)C1(C)C | -1.2 | 0.39
O=C(Cn1cnc2c(oc3nc4c(cc32)CCCC4)c1=O)NCc1ccco1 | x | 0.69
O=C(CSc1nnc(-c2ccccc2)c(-c2ccccc2)n1)Nc1ccc(Cl)cc1 | -2.8 | x
Cc1sc2[nH]c(=O)n(-c3ccc(F)cc3)c(=O)c2c1C | 0.26 | x
CCc1nnc(SCC(=O)Nc2ccc(Cl)cc2F)c2cc3occc3n12 | x | 1.9
c1ccc2c(c1)oc1c(N3CCN(C4CCCC4)CC3)ncnc12 | 0.39 | 0.08
COc1ccc(S(=O)(=O)N2CCc3cc4cccc(C)c4nc32)c(OC)c1 | -0.64 | 1.2
CC1CCC(NC(=O)c2cc(S(=O)(=O)N3CCCCC3)c[nH]2)CC1 (configuration not stated) | x | 2.3

Next section (3 carried over from the part before).
Molecule | CDC25B CDK2 inh | TAR Tat displ
c1ccc2c(c1)oc1c(N3CCN(C4CCCC4)CC3)ncnc12 | 0.39 | 0.08
COc1ccc(S(=O)(=O)N2CCc3cc4cccc(C)c4nc32)c(OC)c1 | -0.64 | 1.2
CC1CCC(NC(=O)c2cc(S(=O)(=O)N3CCCCC3)c[nH]2)CC1 (configuration not stated) | x | 2.3
CC1CCC(NC(=O)C(Cc2c[nH]c3ccccc23)NC(=O)C2CCC(C)CC2)CC1 (configuration not stated) | -0.73 | 0.43
O=C(O)CN1C(=O)C2(OCCCO2)c2ccccc21 | -2.3 | x
O=C(NCc1cccs1)C(=O)NCC(c1cccs1)S(=O)(=O)c1ccc(F)cc1 (configuration not stated) | x | -0.15
COC(=O)c1c(SCC(=O)Nc2cc(F)ccc2F)[nH]c2ccccc2c1=O | x | 0.74
Cc1ccc(C2CC(=O)n3nc(-c4ccc(F)cc4)nc3S2)cc1 (configuration not stated) | 0.07 | x
O=C(CN1C(=O)COc2ccccc21)NCC1CCCO1 (configuration not stated) | x | 0.58
CCCN(CCC)CCNc1cc(C)nc2c(-c3ccccc3OC)c(C)nn12 | -1.2 | x
COc1cc(NS(=O)(=O)c2ccc3[nH]c(=O)oc3c2)cc(OC)c1 | -0.38 | x
Cc1ccccc1CN1C(=O)C(O)(CC(=O)c2ccc3c(c2)OCCO3)c2cc(Cl)ccc21 (configuration not stated) | 1.4 | 1.5
COc1ccc(S(=O)(=O)n2cc([N+](=O)[O-])cn2)cc1OC | -0.7 | 3.1
CCOC(=O)Cn1c(=O)ccc2c(C)cc(C)nc21 | -2 | x
COC(=O)c1cc2oc(C)cc2n1CC(=O)N1CC(C)CC(C)C1 (configuration not stated) | -0.83 | -0.77
CCCCN(Cc1cccs1)S(=O)(=O)c1csc(C(N)=O)c1 | x | 1
CSc1nc(-c2ccccc2)c(C#N)c(N2CCC(C)CC2)n1 | -1.6 | 1.4
CCCC(=O)N1CCN(c2cc(N3CCOCC3)nc(C)n2)CC1 | -1.5 | 0.5
Cc1cc(-c2noc(-c3snnc3C)n2)no1 | -0.99 | x
Nc1ccc(CCc2nc3ccccc3o2)cc1 | -1.3 | 0.34
COc1cc(C2C(C#N)=C(N)OC3=C2C(=O)CCC3)ccc1OC(C)=O (configuration not stated) | -2.9 | x
COc1ccc(-c2noc(N3CCC(N4CCCCC4)CC3)n2)cc1OC | x | 0.24
Cc1nc(N2CCOCC2)c2c(C(=O)N3CCc4ccccc43)c(C)oc2n1 | x | 1.4
COc1ccc(Cl)cc1S(=O)(=O)N1CCN(c2nc3ccccc3n3cccc23)CC1 | -0.16 | -1
CCN(c1cccc(C)c1)S(=O)(=O)c1ccc(N2CCCCS2(=O)=O)cc1 | x | 1.2
O=C(Nc1cccc(-c2nc3ncccc3o2)c1)c1ccc([N+](=O)[O-])o1 | -2.1 | -0.61
CCOc1ccc(C2c3c(oc4ccc(C)cc4c3=O)C(=O)N2CCCN(C)C)cc1 (configuration not stated) | 0.33 | -0.03
CC(C)NC(=O)C1CCN(c2ccc(-c3cccs3)nn2)CC1 | x | 0.46

Overlap with the part before: 2 entries, then new ones.
Molecule | CDC25B CDK2 inh | TAR Tat displ
CCOc1ccc(C2c3c(oc4ccc(C)cc4c3=O)C(=O)N2CCCN(C)C)cc1 (configuration not stated) | 0.33 | -0.03
CC(C)NC(=O)C1CCN(c2ccc(-c3cccs3)nn2)CC1 | x | 0.46
O=C(NC1CCCCC1)C1CCCN1S(=O)(=O)c1cccc2nsnc12 (configuration not stated) | -1.8 | 0.69
CC1(C)Cc2ccccc2-c2[nH]c(=O)n(-c3ccc(Br)cc3)c(=O)c21 | -2.2 | -0.18
O=C(NCC1COc2ccccc2O1)C(=O)NCC1(c2ccccc2)CCCC1 (configuration not stated) | -2.2 | 0.67
O=S(=O)(O)c1cccc(Nc2nc(Cl)nc(Cl)n2)c1 | 0.78 | x
COc1ccc(N=c2ssc(SC)c2-c2ccccc2)cc1 | -1.7 | x
C/C(=N\NC(N)=S)c1csc(-c2ccccc2)n1 | -0.39 | x
O=C(NNc1cc(Cl)cc(Cl)c1)c1ccc(F)cc1F | -2.2 | x
CCC1(CC)Cc2ccccc2C(NC(=O)N2CCOCC2)=C1C#N | -0.13 | 0.64
Cc1ccc(C)c(NC(=O)c2cn3c4c(ccc(Cl)c4c2=O)OC(C)C3)c1 (configuration not stated) | x | -6.4
CC(=O)/C(N=Nc1ccccc1Cl)=C(/O)c1ccccc1 | -2.4 | x
CCc1nn(CCCC(=O)NCCCN2CCN(C)CC2)c(=O)c2cc3oc(C)cc3n12 | 0.71 | 0.23
Cc1cc(C)n2nc(C)c(-c3ccc(Cl)cc3)c2n1 | 0.04 | 0.33
Cc1ccc(CNC(=O)c2oc3ccc4c(c3c2C)C(O)CC(C)(C)O4)cc1 (configuration not stated) | x | 1.3
Cc1cc2c(Oc3ccc(F)cc3)ncnc2s1 | x | 0.43
CCOC(=O)N1CCN(S(=O)(=O)c2ccc3[nH]cc(C(=O)O)c(=O)c3c2)CC1 | 0.24 | 2.3
O=c1c2sccc2[nH]c(=S)n1Cc1ccc2c(c1)OCO2 | -0.78 | x
O=C(NCC1CCCO1)C1CCN(c2ccc3cc(S(=O)(=O)N4CCCCC4)ccc3n2)CC1 (configuration not stated) | x | 0.2
c1coc(-c2nc3ccccc3nc2-c2ccco2)c1 | -0.23 | x
FC(F)(F)c1ccc(Cl)c(NC(=S)NN=C2CCCCCC2)c1 | -1.7 | x
COc1cc(C)ccc1Oc1ccc(Cl)nn1 | -1.8 | 1.1
Cc1cc(-c2ccc(S(=O)(=O)NCc3cccnc3)cc2)on1 | x | -0.08
Cc1ccc(-c2noc(CN(C(=O)c3cc(C)cc(C)c3)C(C)C)n2)cc1 | 0.17 | 0.73
CC(C)(C)c1nnc2sc(-c3ccccn3)nn12 | -0.03 | 1.1
CCC(C)NC(=O)Cn1cc(S(=O)(=O)NC)c(S(=O)(=O)NC)c1 (configuration not stated) | x | -1.4
COc1ccc(OC)c(Nc2nc3nonc3nc2Nc2ccc(F)cc2)c1 | 0.87 | -0.63

Additional results follow:
Molecule | CDC25B CDK2 inh | TAR Tat displ
COCCN1C(=O)c2oc3cc(C)cc(C)c3c(=O)c2C1c1ccc(F)cc1 (configuration not stated) | -2.8 | 2.7
CCc1ccccc1NS(=O)(=O)c1cn(C)c(C)n1 | x | 1.6
COc1ccc2[nH]c3c(c2c1)CCNC31CCN(C)CC1 | 0.9 | 2.2
CCC1(C)Cc2c(sc3nc(SC(C)C)nc(NCCN4CCOCC4)c23)CO1 (configuration not stated) | 0.23 | 0.79
O=C(O)c1ccc(NS(=O)(=O)c2cccc3nsnc23)cc1 | -1.4 | 0.06
CC1CC(C)CN(C(=O)CC(C)S(=O)(=O)c2ccc3c(c2)NC(=O)C(C)S3)C1 (configuration not stated) | x | -2.1
NC(=O)c1ccc(-n2nnnc2SCc2ccccc2Br)cc1 | -0.42 | 1.1
O=C(NCC1CCCO1)c1sc2ncccc2c1-n1cccc1 (configuration not stated) | x | 0.2
Cn1cccc1-c1cc2n(n1)CCCN2C(=O)CCC(=O)N1CCC(C(N)=O)CC1 | x | 2.6
C=CCN1C(=O)C2(c3ccccc31)c1c(oc3ccc(C)cc3c1=O)C(=O)N2CC1CCCO1 (configuration not stated) | -1.9 | 3.1
COc1ccc(N2C(=O)CC(N3CCCCC3)C2=O)cc1 (configuration not stated) | 0.67 | -0.1
CC(C)(C)c1ccc(Cn2c(-c3nonc3N)nc3ccccc32)cc1 | -1 | -5.7
Cc1c(C(=O)N2CCCC2)c(S(=O)(=O)NCc2cccs2)c(C)n1C | x | 0.98
CCOc1cccc2c1OC1(C)CC2NC(=S)N1CCCOC (configuration not stated) | -2.2 | x
Cc1nc(-c2ccccc2)sc1CCNS(=O)(=O)c1ccc(Br)cc1 | x | 2.4
N#Cc1c(NC(=O)C2C3C=CC(C3)C2C(=O)O)sc2c1CCCCC2 (configuration not stated) | -0.02 | 0.65
COc1cccc(-n2c(SCc3ccccn3)nc3c(c2=O)SCC3)c1 | x | 0.66
Cc1ccccc1Oc1nc2ccccc2nc1Cl | -1.3 | 1.3
CC(C)Oc1ccc(CSc2ncn[nH]2)cc1 | -3.4 | 1.6
O=C(Cn1cnc2c(nc3n2CCCCC3)c1=O)N1CCN(c2ccc(F)cc2)CC1 | x | 1.4
Cc1ccc(C2CC(C(F)(F)F)n3ncc(C(=O)N4CCC(C)CC4)c3N2)cc1 (configuration not stated) | x | 0.26
CCOC(=O)c1c(NC(=O)C(=O)c2c[nH]c3ccccc23)sc2c1CCCC2 | -0.07 | 2.2
O=C(Cn1c(=O)sc2ccccc21)Nc1nnc(SCC(=O)N2CCCCC2)s1 | -1 | 1
Cc1nn(CCCC(=O)NC2CCCC2)c(=O)c2cc3occc3n12 | -1.1 | 0.37
N=C1C(c2nc3ccccc3s2)=C(O)CN1c1cccc(C(=O)O)c1 | -1.5 | -0.2

2 of the compounds above, field by field.
COc1cc(NS(=O)(=O)c2ccc3[nH]c(=O)oc3c2)cc(OC)c1
  CDC25B CDK2 inh = -0.38 | TAR Tat displ = x

C=CCN1C(=O)C2(c3ccccc31)c1c(oc3ccc(C)cc3c1=O)C(=O)N2CC1CCCO1 (configuration not stated)
  CDC25B CDK2 inh = -1.9 | TAR Tat displ = 3.1

New compounds follow.
Molecule | CDC25B CDK2 inh | TAR Tat displ
CC(=O)Nc1ccc(S(=O)(=O)Nc2ccc(S(=O)(=O)NC(C)=O)cc2)cc1 | -3.1 | x
Cc1ccc(Cn2c(=S)[nH]c3ccccc32)cc1 | -1.2 | x
Cc1cc(C)cc(NS(=O)(=O)c2ccc(-c3coc(C)n3)cc2)c1 | x | 0.63
C=Cc1ccc(Cn2nc(C)c3c(C)onc3c2=O)cc1 | x | -0.47
CC1CCCC(C)N1C(=O)[C@H]1[C@@H]2C[C@@H]3[C@H]1C(=O)O[C@@H]3C2 (some centres not stated) | -2.2 | 0.09
CC1(C)C(=O)NN(c2ccc(Br)cc2)C1=O | -0.41 | -0.46
CC(=O)c1cccc(NC(=O)c2cccc(N3C(=O)c4ccccc4C3=O)c2)c1 | 2.2 | x
Cc1ccc(N(C)S(=O)(=O)c2ccc(-c3cc(C)[nH]n3)s2)cc1 | x | 0.53
CC(CS(=O)(=O)c1ccc2c(c1)NC(=O)CS2)C(=O)NCc1ccco1 (configuration not stated) | x | 5.3*
CCN(CC)CCNC(=O)C1Cc2cc(S(=O)(=O)N3CCCC3)ccc2N1C(C)=O (configuration not stated) | x | 0.68
CC(=O)Nc1ccc(S(=O)(=O)[C@H]2CS(=O)(=O)C[C@@H]2NCc2ccccn2)cc1 | -2 | -3.4
CCSc1nnc(NC(=O)c2cc(=O)c3c(C)cc(C)cc3o2)s1 | 0 | -0.06
O=C1NC2=C(C(=O)c3ccccc32)C(c2ccc(Cl)cc2)S1 (configuration not stated) | 0.34 | 0.62
O=C(O)CCN1C(=O)C(=O)/C(=C(/O)c2ccc(Cl)cc2)C1c1cccc(F)c1 (configuration not stated) | 0.13 | x
